Screening data from PubChem BioAssay.
D2 agonist: activates the human D2 dopamine receptor; AID 624465; DiscoveRx PathHunter D2 beta-arrestin, luminescence, 90 min; 100% = 57 uM dopamine signal; activation, % (test concentration not listed); actives 0.084% (n = 360,000); in the data active = activation above about 40%; inconclusive = about 15% to 40%; inactive = below about 15%; note: compound concentration not given in the record; the text of the record calls up to 30% inactive
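DiscoveRx PathHunter D2 beta-arrestin cells (2,100/well) attached overnight, then compound-stimulated 90 min at 37 C in HBSS/10 mM HEPES/0.1% Tween-20 buffer; beta-galactosidase complementation read by luminescence after 1 h at ambient temperature. Dopamine 57 uM final (EC100) as control.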
TRPML1 blocker: inhibitors of human TRPML1 channel | Q9GZU1 | AID 624415 | activity change, negative = inhibition, % (no concentration beside the values) | actives 0.02% (n = 390,000) | TRPML1-inducible cells, Ca2+ dye fluorescence, FDSS; active compounds read low; inhibition of EC80 agonist-evoked calcium signal; in the data active means activity change below about -50%; inconclusive means about -30% to -50%; inactive means above about -30%;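 note: stimulus is agonist 54-4 at its EC80 concentration; % is set by controls: 0 for no effect and ±100 for the full control effect; compound concentration not given in the record; the text of the record puts the active cut at -80%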
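Calcium fluorescence in TRPML1-DL cells induced overnight with Tet: a 110 s read after compound pin addition, then a 110 s antagonist read after challenge with 54-4 at 4 uM final (EC80).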
D2 PAM: potentiates the human D2 dopamine receptor allosterically. P14416. DiscoveRx D2 beta-arrestin cells, luminescence, 90 min; 100% = 57 uM dopamine signal. potentiation, % (no concentration beside the values). actives 0.23% (n = 360,000). AID 624464; active = potentiation of 50% or more; inconclusive = 30% to 50%; inactive = 30% or less;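 note: compound concentration not given in the record; tested on top of an EC20 dose of dopamine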
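PathHunter beta-arrestin assay in DiscoveRx D2 cells. Compounds were added with an EC20 of dopamine (50 nM final) for 90 min at 37 deg C. Luminescence was read 1 h after detection reagent, with 57 uM dopamine as the EC100 control.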
PINK1 modulator: PINK1 expression modulation; PINK1 immunofluorescence, high-content cytometry, 24 h; Potency, µM (titrated, usually from 76.6 µM), for the others: at the top dose activation (PINK1 increase), actives largely listed as activators; actives 0.2% (n = 410,000); AID 624263; active = well fitted activation curve with a large enough effect; inconclusive = small, poorly fitted or top-dose-only effect; inactive = flat fitted curve, though single readings scatter; cell line not stated here;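 note: potency is the fitted concentration of half-maximal effect; % of control where 0% means no effect; nearly all actives have a fitted effect of over 65% in size; a mitochondrial uncoupler was the plate control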
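A stable cell line was treated with compounds at 5 concentrations for 24 hours, with CCCP as control. PINK1 levels and mitochondrial localization were measured by immunofluorescence with mitochondrial, cell and nuclear markers after fixation, read by laser-scanning cytometry.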
TRPML1 agonist: activates the human TRPML1 channel | Q9GZU1 | TRPML1-expressing cells, Ca2+ dye fluorescence, FDSS; host cell line not named in the record; reference of the full effect not given here | actives 0.12% (n = 410,000) | AID 624414 | activation, % (concentration not given with the values); in the data active = activation above about 50%; inconclusive = about 30% to 50%; inactive = below about 30%; note: 0% is about no effect; the text of the record puts the active cut at 80%
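Kinetic FDSS Ca2+ read in Tet-induced TRPML1-DL cells (ABD Ca8 dye plus quencher, 45-90 min RT loading): baseline, then compound, then 110 s agonist window; EC80 agonist 54-4 at 4uM final added afterwards for a 110 s antagonist window.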
Six1-Eya2 blk: inhibitors of human Six1/Eya2 interaction. AlphaScreen GST-Six1/His-Eya2 binding, biochemical; active compounds read low; control for the full effect not named in the record. actives 0.56% (n = 360,000). activity change, % (test concentration not listed); in the data active = activity change below about -65%; inconclusive = about -30% to -65%; inactive = above about -30%; note: % is set by controls: 0 for no effect and ±100 for the full control effect
Target sequence (O00167 whole entry, looked up): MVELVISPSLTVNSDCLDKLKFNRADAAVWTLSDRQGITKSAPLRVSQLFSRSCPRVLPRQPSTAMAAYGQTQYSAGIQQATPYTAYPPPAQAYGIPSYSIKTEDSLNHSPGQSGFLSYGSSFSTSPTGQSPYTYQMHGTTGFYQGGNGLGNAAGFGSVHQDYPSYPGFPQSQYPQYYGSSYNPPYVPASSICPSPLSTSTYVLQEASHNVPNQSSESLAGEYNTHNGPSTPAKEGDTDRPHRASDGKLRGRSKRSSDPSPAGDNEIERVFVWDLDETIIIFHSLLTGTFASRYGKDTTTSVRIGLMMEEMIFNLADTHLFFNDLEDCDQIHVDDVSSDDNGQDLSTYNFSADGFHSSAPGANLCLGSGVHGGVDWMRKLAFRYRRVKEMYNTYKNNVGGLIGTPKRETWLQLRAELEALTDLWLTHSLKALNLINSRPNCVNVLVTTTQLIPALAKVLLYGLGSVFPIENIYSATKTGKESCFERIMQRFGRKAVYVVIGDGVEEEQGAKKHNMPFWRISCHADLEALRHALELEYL
Target sequence (Q15475 whole entry, looked up): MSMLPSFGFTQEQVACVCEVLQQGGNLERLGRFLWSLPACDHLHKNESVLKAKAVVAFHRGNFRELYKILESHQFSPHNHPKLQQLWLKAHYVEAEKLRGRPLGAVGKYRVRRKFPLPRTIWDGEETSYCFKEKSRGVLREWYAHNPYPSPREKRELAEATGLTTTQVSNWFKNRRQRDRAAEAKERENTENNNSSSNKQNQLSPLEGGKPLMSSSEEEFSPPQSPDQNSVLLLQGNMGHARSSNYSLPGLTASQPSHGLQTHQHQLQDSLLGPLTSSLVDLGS
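GST-Six1 + His-Eya2 (5X stock: 250/500 nM); Tris pH 8.0, 300 mM NaCl, 0.05% BSA, 0.02% Tween 20; GSH donor/Ni acceptor beads; 1 h 37 °C dark; AlphaScreen readout.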
Starred values were filed as active, the others as inactive; u = inconclusive; x = no result given; [ ] = dose if it differs, or a comment.

| Molecule | Six1-Eya2 blk | TRPML1 agonist | D2 PAM | TRPML1 blocker | PINK1 modulator | D2 agonist |
| --- | --- | --- | --- | --- | --- | --- |
| CCCC(=O)N(Cc1cc(=O)[nH]c2ccccc12)c1ccccc1C | 6 | -0.3 | -6 | -9 | -1.1% | -1.7 |
| O=C(COC(=O)c1cc(Br)ccc1O)Nc1cccnc1Cl | -10 | 1.8 | -4 | 9 | 17% | 0.9 |
| FC(F)Oc1ccccc1C1CC(c2ccc(Br)s2)Nc2ncnn21 (stereo not given) | -11 | 3.8 | -7 | -4 | 1.3% | -3.8 |
| Cc1ccc(C)c(Sc2ccc(NC(=O)CCN3C(=O)NC4(CCCC4)C3=O)cc2)c1 | -1 | 0.6 | -2 | -1 | 0.0% | 2.4 |
| Cc1cnc(NC(=O)CSc2ncc(-c3ccccc3)n2Cc2ccco2)s1 | u | 16 | -21 | -9 | -0.3% | -5.4 |
| Cc1ccc(O)c(N=NC2=C(O)CC(C)(C)CC2=O)c1 | -90* | 0.3 | -26 | 3 | -1.4% | -6.8 |
| O=S(=O)(Nc1cccc(-c2nc3cccnc3s2)c1)c1ccc2c(c1)CCCC2 | 15 | 1.3 | 0 | -7 | 1.1% | -2.8 |
| COCCNC(=O)/C=C/c1c(Cl)cccc1Cl | 9 | 0.3 | -23 | 20 | -1.5% | -2.0 |
| CC(C)(C)OC(=O)N1CCC(NC(=O)c2nc[nH]c2C(=O)NCc2ccccc2)CC1 | -4 | -0.5 | -12 | 12 | u | -2.3 |
| O=C(CN(C(=O)c1csnn1)c1ccccc1C(F)(F)F)NC1CCCCC1 | -2 | -1.3 | -7 | -4 | 2.0% | -5.0 |
| COc1ccccc1NC(=S)N1CCN(c2cccc(C)c2C)CC1 | -4 | 1.1 | -2 | 1 | 3.6% | 1.5 |
| CC(C)N1CCc2c(sc(NC(=O)c3ccc(S(=O)(=O)N4CCCCC4C)cc3)c2C(N)=O)C1 (stereo not given) | 1 | 0.7 | -26 | -16 | -1.1% | -3.5 |
| CC(=O)c1c(C)oc2ccc(N(C(C)=O)S(=O)(=O)c3ccc(F)cc3C)cc12 | -1 | -0.5 | -4 | -6 | 2.7% | -6.4 |
| CCOc1cc(N2CCOCC2)c(OCC)cc1NC(=O)c1ccc(OCc2c(C)noc2C)c(OC)c1 | 1 | -0.7 | -3 | 48 | 11% | 1.1 |
| Cc1csc(NC(=O)CCSCCc2ccccn2)n1 | 6 | -0.7 | -2 | 19 | 2.4% | -3.4 |
| C(=N\Nc1nc(N2CCCCCC2)nc(N2CCCCCC2)n1)/c1ccccc1 | 1 | 1.2 | -9 | 12 | 4.4% | 1.7 |
| CCOc1cc(C(=S)N2CCOCC2)ccc1OS(=O)(=O)c1ccc(C)cc1 | -3 | 1.0 | 3 | 6 | 0.8% | 1.1 |
| CCOC(=O)C(CC)n1cnc2c(nnn2-c2ccc(F)cc2)c1=O (stereo not given) | 2 | -0.3 | -4 | -14 | -0.7% | 0.2 |
| Cc1cc(NC(=O)COC(=O)CSc2nc3cc(Cl)ccc3n2Cc2ccccc2)no1 | 5 | 2.1 | -4 | 15 | -0.7% | 0.2 |
| COc1ccc(C(=O)CN(C(=O)c2ccc(Cl)cc2)N2C(=O)c3ccccc3C2=O)cc1 | -3 | 0.0 | -15 | 3 | 0.3%[38.3 µM] | -1.4 |
| CCOc1ccccc1NC(=S)NCC1CCCO1 (stereo not given) | 1 | -0.1 | 6 | -7 | 0.7% | -0.9 |
| CC(C)(C)OC(=O)NC(Cc1ccccc1)C(=O)NCCCC(=O)O (stereo not given) | -1 | 0.9 | 1 | -1 | -1.0% | -7.3 |
| COc1ccc(S(=O)(=O)N2CCC(C(=O)Nc3cc(C(F)(F)F)ccc3Cl)CC2)cc1 | x | 1.7 | x | -6 | -1.4% | x |
| COC(=O)NC(NC(=S)Nc1ccc([N+](=O)[O-])cc1)C(Cl)(Cl)Cl (stereo not given) | -12 | 1.5 | -35 | 4 | 20µM* | -5.5 |
| N#CCCN1CCN(S(=O)(=O)c2ccc(S(=O)(=O)N3CCCCCC3)cc2)CC1 | 0 | 0.4 | -2 | -3 | 4.4% | -4.9 |
| Cc1cc(C)c(S(=O)(=O)NCCc2ccccc2)c(C)c1 | 5 | 3.7 | -4 | 29 | 8.0% | -3.7 |
| CCCn1c(NC(=O)CSCC(=O)Nc2cc(C)on2)nc2ccccc21 | -3 | 1.6 | -28 | 11 | 0.4% | -2.8 |
| CC12CN3CC(C)(CN(C1)C3c1ccc([N+](=O)[O-])o1)C2 (stereo not given) | 6 | -0.2 | 1 | 3 | 0.6% | 3.2 |
| Cc1ccc2nc3c(c(C(=O)OCC(=O)N(C)C4CCS(=O)(=O)C4)c2c1)CCCC3 (stereo not given) | 2 | -0.3 | 0 | -3 | 5.0% | -3.3 |
| Cn1c(=O)c2c(nc3n2CC(O)CN3c2ccccc2)n(C)c1=O (stereo not given) | -13 | 0.2 | 0 | -10 | 1.0% | -5.9 |

Molecules listed so far that contain a thiophene ring, fused or not, in the order listed:
| Molecule | Six1-Eya2 blk | TRPML1 agonist | D2 PAM | TRPML1 blocker | PINK1 modulator | D2 agonist |
| --- | --- | --- | --- | --- | --- | --- |
| FC(F)Oc1ccccc1C1CC(c2ccc(Br)s2)Nc2ncnn21 (stereo not given) | -11 | 3.8 | -7 | -4 | 1.3% | -3.8 |
| CC(C)N1CCc2c(sc(NC(=O)c3ccc(S(=O)(=O)N4CCCCC4C)cc3)c2C(N)=O)C1 (stereo not given) | 1 | 0.7 | -26 | -16 | -1.1% | -3.5 |

The listing picks up with the 3 entries that preceded the break.
| Molecule | Six1-Eya2 blk | TRPML1 agonist | D2 PAM | TRPML1 blocker | PINK1 modulator | D2 agonist |
| --- | --- | --- | --- | --- | --- | --- |
| CC12CN3CC(C)(CN(C1)C3c1ccc([N+](=O)[O-])o1)C2 (stereo not given) | 6 | -0.2 | 1 | 3 | 0.6% | 3.2 |
| Cc1ccc2nc3c(c(C(=O)OCC(=O)N(C)C4CCS(=O)(=O)C4)c2c1)CCCC3 (stereo not given) | 2 | -0.3 | 0 | -3 | 5.0% | -3.3 |
| Cn1c(=O)c2c(nc3n2CC(O)CN3c2ccccc2)n(C)c1=O (stereo not given) | -13 | 0.2 | 0 | -10 | 1.0% | -5.9 |
| COc1ccc(NC(=O)N(C)C[C@@H]2Oc3ccc(NC(=O)NC(C)C)cc3CC(=O)N([C@H](C)CO)C[C@@H]2C)cc1 | 3 | -0.6 | -14 | -6 | 0.3% | -3.7 |
| CC(C(=O)NCC1CCCCC1)N(C)CC(=O)Nc1ccc(N2CCOCC2)cc1 (stereo not given) | 16 | -0.9 | 1 | -13 | 0.9% | -2.7 |
| Cn1cnnc1SCc1ccc(F)c2ccccc12 | 0 | 1.4 | -5 | 12 | -1.5%[38.3 µM] | -0.2 |
| N#Cc1c(N)[nH]c(C(=O)c2ccccc2)c1-c1ccccc1Br | -2 | -0.5 | x | x | 3.0% | x |
| COc1ccc(-c2noc3c2-c2nc(-c4c(F)cccc4F)sc2CC3)cc1 | -11 | -0.5 | -3 | -2 | 2.0% | -0.9 |
| Fc1ccc(-c2csc(N3CCC(c4ccccc4)C3)n2)cc1 (stereo not given) | 5 | 0.5 | -13 | -11 | 3.7% | -2.3 |
| COc1ccc(F)c(CN2CCC(n3nccc3NC(=O)CCCc3ccccc3)CC2)c1 | -2 | -0.3 | -16 | -3 | -0.4% | -1.2 |
| COC(=O)[C@H](Cc1ccc(O)cc1)NC(=O)Cn1cnc2c(SC)nc(N)nc21 | 0 | 0.0 | x | 5 | -0.1% | 0.2 |
| Cc1ccc(CNc2nc3cc(-c4ccccc4)sc3c(=O)n2C)c(C)c1 | 10 | -0.4 | -4 | x | 17% | 53* |
| Cc1oc2ccc(OCC(N)=O)cc2c1C(=O)OC(C)C | -4 | -0.1 | -14 | -14 | -0.3% | -4.7 |
| O=C(CSc1nnc(Cc2ccccc2)o1)c1ccc2c(c1)OCO2 | -3 | 0.5 | -2 | 5 | -3.8% | -4.2 |
| O=C(COc1ncnc2sccc12)N1CCN(C(=O)c2ccco2)CC1 | -20 | -0.6 | -4 | -14 | 0.7% | -2.1 |
| CCCOC(=O)NC(CC)COC(=O)Nc1cccc(C)c1C (stereo not given) | 3 | 1.5 | -6 | -4 | -2.2% | -1.8 |
| Cc1cc([N+](=O)[O-])nn1Cc1noc(C(=O)NCCCn2ccnc2)n1 | 0 | -1.4 | -2 | -3 | -2.0% | -2.6 |
| Cn1cc(C(=O)Nc2ccc(F)c(Cl)c2)cn1 | 2 | -0.2 | -34 | -4 | -0.5% | -1.6 |
| N/C(=N\OC(=O)c1cccc(F)c1)c1cccc([N+](=O)[O-])c1 | -11 | -0.6 | 85* | -14 | 3.6% | u |
| CCC(=O)NCCc1nc2cc(NC(=O)c3ccc(Cl)cc3)ccc2n1C | 4 | 0.4 | 0 | -15 | 1.5% | 1.7 |
| Cc1sc2ncnc(N3CCC(C(=O)NNC(=O)COc4ccc(Br)cc4)CC3)c2c1C | -29 | -0.4 | 15 | 0 | 2.9% | 9.0 |
| COc1ccc(CNC(=O)C2CCN(S(=O)(=O)c3ccc4c(c3)NC(=O)CO4)CC2)cc1 | 6 | -0.2 | -8 | 3 | 1.0% | 4.7 |
| COc1ccc(NC(=O)Nc2cc(C(=O)O)ccc2N2CC3CC(C2)c2cccc(=O)n2C3)c(OC)c1 (stereo not given) | -3 | -0.5 | -4 | 19 | -0.3% | 2.3 |
| CCOc1ccc(N2C(=O)/C(=C/c3ccccc3OCC(=O)OC)N(CC(=O)OC)C2=S)cc1 | -12 | 0.1 | -17 | -14 | 2.3% | -4.5 |
| CCN1CCN(Cc2ccc(NC(=O)c3cc(NC(=O)c4cc(-c5ccc(OC)cc5)n[nH]4)cc(OC)c3)cc2C(F)(F)F)CC1 | -13 | 0.2 | -10 | 8 | -0.3% | 2.9 |
| COc1cccc(-c2cc(C(F)(F)F)n3ncc(C(=O)O)c3n2)c1 | 16 | -0.4 | -8 | -5 | 0.2% | -2.2 |
| COC(=O)Cc1ccc(NC(=S)N2CCN(c3cc(Cl)ccc3C)CC2)cc1 | 0 | -0.7 | -9 | -1 | 2.5% | 0.6 |
| CCOc1ccccc1CNC(c1ccccc1)c1ccccc1 | 26 | 0.8 | -1 | -4 | u | -2.7 |
| NS(=O)(=O)c1ccc(NC(=O)COc2ccc(S(=O)(=O)N3CCCC3)cc2)cc1 | 28 | -0.3 | -9 | -12 | -1.1% | -5.7 |
| CCN(CC)S(=O)(=O)c1cc(NC(=O)C2CC(=O)N(Cc3ccccc3)C2)ccc1Cl (stereo not given) | 1 | -0.8 | 9 | -4 | 1.6% | 1.4 |
| COC(=O)CCCn1cc(CN2CC(N3CCN(C4CCN(C)CC4)CC3)CS2(=O)=O)nn1 (stereo not given) | 7 | -0.4 | x | x | 0.2% | x |
| CC(=O)c1ccc(S(=O)(=O)Nc2cccc(-c3cn4c(n3)SCC4)c2)cc1 | 0 | -0.3 | -3 | 9 | 2.5% | -4.3 |
| N#Cc1c(SCc2cccc(Cl)c2)sc(C(=O)c2ccccc2)c1N | 22 | 1.2 | -6 | -3 | 1.2% | -1.7 |
